Yeast UUG start – modulators of start codon recognition fidelity in yeast | AID 602363 | activity score, % at 18.7 µM | hit rate 0.13% among 350,000 | S. cerevisiae UUG-firefly luciferase reporter, luminescence/redox ratio;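 active = replicate mean at a twofold rise or more, about +100% in these data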;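 also: firefly luciferase made from a UUG start codon reports start codon fidelity; reporter light over untreated wells divided by growth signal over untreated wells; some hits fall short of that in this replicate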
Env fusion inh – blocks HIV Env-driven cell-cell fusion | hit rate 1.1% among 360,000 | HeLa-JRFL Env/CEM21 cell fusion, luciferase | AID 651610 | inhibition, % at 12.3 µM;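 active = mean replicate inhibition score of at least 50 and every replicate individually at or above 50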;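 also: 0% = plate neutral controls and 100% = maraviroc near 300 nM; one replicate is shown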
Numbers without * were called inactive; [ ] = another dose, or the depositor's remark.

1: COc1ccc(NC(=O)N(C)C[C@H]2Oc3ccc(NC(=O)CCCCCC(=O)Nc4ccccc4N)cc3CC(=O)N([C@H](C)CO)C[C@H]2C)cc1
2: C[C@@H]1CN([C@@H](C)CO)C(=O)c2cc(NC(=O)Nc3ccc4c(c3)OCO4)ccc2O[C@@H](C)CCCCO[C@H]1CN(C)C(=O)Nc1ccccc1
3: C[C@@H]1CN([C@@H](C)CO)C(=O)c2cccc(NC(=O)Nc3ccc4c(c3)OCO4)c2O[C@H]1CN(C)S(=O)(=O)c1ccc(F)cc1
4: C[C@H]1CCCCO[C@@H](CN(C)C(=O)Nc2ccc(F)cc2)[C@@H](C)CN([C@@H](C)CO)C(=O)c2cc(NS(C)(=O)=O)ccc2O1
5: Cc1noc(C)c1S(=O)(=O)Nc1ccc2c(c1)C(=O)N([C@@H](C)CO)C[C@@H](C)[C@H](CN(C)S(=O)(=O)c1ccc(Cl)cc1)OCCCC[C@@H](C)O2
6: C[C@@H]1CN([C@@H](C)CO)C(=O)c2cc(C#Cc3ccc(F)cc3)cnc2O[C@@H]1CN(C)C(=O)c1ccccc1F
7: C[C@H]1CN([C@@H](C)CO)C(=O)c2cc(-c3cccnc3)cnc2O[C@@H]1CN(C)C
8: Cc1noc(C)c1S(=O)(=O)Nc1ccc2c(c1)C(=O)N([C@H](C)CO)C[C@@H](C)[C@@H](CN(C)C(=O)NC1CCCCC1)OCCCC[C@@H](C)O2
9: C[C@H]1CCCCO[C@H](CN(C)C)[C@@H](C)CN([C@@H](C)CO)C(=O)c2cc(NC(=O)CCCN(C)C)ccc2O1
10: C[C@@H]1CN([C@@H](C)CO)C(=O)c2cc(NC(=O)Cc3ccccc3)ccc2O[C@@H](C)CCCCO[C@H]1CN(C)C(=O)CCC(F)(F)F

| assay / entry | 1 | 2 | 3 | 4 | 5 | 6 | 7 | 8 | 9 | 10 |
| --- | --- | --- | --- | --- | --- | --- | --- | --- | --- | --- |
| Yeast UUG start | -5 | 6 | 2 | 9 | 5 | 3 | 7 | -15 | -2 | 20 |
| Env fusion inh | -3[16.7 µM] | 2[16.7 µM] | -62[16.7 µM] | -3[16.7 µM] | 1[16.7 µM] | -11[16.7 µM] | -40[16.7 µM] | -83[16.7 µM] | -8[16.7 µM] | 1[16.7 µM] |

11: Cc1noc(C)c1NC(=O)Nc1ccc2c(c1)C(=O)N([C@H](C)CO)C[C@H](C)[C@@H](CN(C)S(=O)(=O)c1ccc(F)cc1)OCCCC[C@H](C)O2
12: COc1ccc(S(=O)(=O)Nc2ccc3c(c2)C(=O)N([C@H](C)CO)C[C@H](C)[C@H](CN(C)S(=O)(=O)c2cccs2)OCCCC[C@H](C)O3)cc1
13: C[C@@H]1CN([C@@H](C)CO)C(=O)c2cc(NC(=O)NC3CCCCC3)ccc2O[C@@H](C)CCCCO[C@H]1CN(C)C(=O)CCC(F)(F)F
14: Cc1noc(C)c1NC(=O)N(C)C[C@@H]1Oc2ccc(NS(=O)(=O)c3ccc(Cl)cc3)cc2CC(=O)N([C@@H](C)CO)C[C@@H]1C
15: C[C@H]1CCCCO[C@H](CN(C)C(=O)Nc2ccc(F)cc2)[C@@H](C)CN([C@@H](C)CO)C(=O)c2cc(NC(=O)c3ccccc3)ccc2O1
16: Cc1noc(C)c1S(=O)(=O)Nc1ccc2c(c1)C(=O)N([C@H](C)CO)C[C@@H](C)[C@@H](CN(C)C(=O)Nc1ccc(C(F)(F)F)cc1)OCCCC[C@@H](C)O2
17: COc1ccc(NC(=O)Nc2ccc3c(c2)CC(=O)N([C@H](C)CO)C[C@@H](C)[C@@H](CN(C)Cc2ccc(-c4ccccc4)cc2)O3)cc1
18: Cc1nc2cc(Br)ccc2c(=O)n1Cc1cccc(O)c1
19: O=C(C[C@H]1C=C[C@H](NC(=O)Nc2cc(F)ccc2F)[C@@H](CO)O1)Nc1ccc(-c2ccccc2)cc1
20: COc1ccc(NC(=O)Nc2ccc3c(c2)CC(=O)N([C@@H](C)CO)C[C@@H](C)[C@@H](CN(C)C(=O)Nc2ccc(OC)cc2)O3)cc1

| assay / entry | 11 | 12 | 13 | 14 | 15 | 16 | 17 | 18 | 19 | 20 |
| --- | --- | --- | --- | --- | --- | --- | --- | --- | --- | --- |
| Yeast UUG start | -7 | -3 | 27 | -1 | -5 | -11 | -2 | 22 | -8 | -1 |
| Env fusion inh | 14[16.7 µM] | 8[16.7 µM] | -3[16.7 µM] | 19[16.7 µM] | -3[16.7 µM] | -10[16.7 µM] | 8[16.7 µM] | -3[16.7 µM] | 0[16.7 µM] | 8[16.7 µM] |

21: C[C@H](CO)N1C[C@H](C)[C@@H](CN(C)S(C)(=O)=O)Oc2ncc(-c3cccc(F)c3)cc2C1=O
22: O=C(C[C@H]1C=C[C@H](NC(=O)CC2CC2)[C@@H](CO)O1)NCc1ccc(Cl)cc1
23: CCCN(C)C[C@H]1Oc2ncc(-c3ccccc3F)cc2C(=O)N([C@H](C)CO)C[C@H]1C
24: C[C@@H]1CN([C@@H](C)CO)S(=O)(=O)c2ccc(C#CC(C)(C)O)cc2O[C@@H]1CN(C)C(=O)CN(C)C
25: O=C(C1=C[C@@H](c2ccccc2)C[C@@H](OCCCCO)O1)N1CCN(Cc2ccccc2)CC1
26: CCCN(C)C[C@@H]1Oc2ncc(C#CCC(C)C)cc2C(=O)N([C@H](C)CO)C[C@H]1C
27: COc1ccccc1NC(=O)N(C)C[C@@H]1Oc2cc(Br)ccc2S(=O)(=O)N([C@@H](C)CO)C[C@@H]1C
28: O=C(Nc1ccc(Cl)c(Cl)c1)N[C@H]1CC[C@H](CCn2cc(C3CCCCC3)nn2)O[C@@H]1CO
29: C[C@H]1CN([C@@H](C)CO)C(=O)c2cccc(NC(=O)c3cnccn3)c2O[C@H]1CN(C)Cc1ccc2c(c1)OCO2
30: C[C@@H]1CN([C@@H](C)CO)C(=O)Cc2cc(N(C)C)ccc2O[C@@H]1CN(C)Cc1ccc(Oc2ccccc2)cc1

| assay / entry | 21 | 22 | 23 | 24 | 25 | 26 | 27 | 28 | 29 | 30 |
| --- | --- | --- | --- | --- | --- | --- | --- | --- | --- | --- |
| Yeast UUG start | 22 | -12 | -39 | -2 | 3 | 10 | 1 | 1 | 42 | 8 |
| Env fusion inh | 1[16.7 µM] | 24[16.7 µM] | 9[16.7 µM] | -13[16.7 µM] | 10[16.7 µM] | 14[16.7 µM] | 13[16.7 µM] | 63*[16.7 µM] | -1[16.7 µM] | 6[16.7 µM] |

31: C[C@H](CO)N1C[C@H](C)[C@H](CN(C)C(=O)C2CCC2)Oc2ncc(-c3cccc(C#N)c3)cc2C1=O
32: COc1cccc(NC(=O)N(C)C[C@H]2Oc3cc(C#Cc4ccc(F)cc4)ccc3S(=O)(=O)N([C@H](C)CO)C[C@@H]2C)c1
33: Cc1ccc(S(=O)(=O)N(C)C[C@H]2Oc3c(NC(=O)Nc4ccc5c(c4)OCO5)cccc3C(=O)N([C@@H](C)CO)C[C@@H]2C)cc1
34: COCC(=O)N[C@H]1CC[C@H](CC(=O)N2CCCCC2)O[C@@H]1CO
35: O=C(NCc1ccccc1)C(c1ccccc1)N(Cc1ccccc1)C(=O)Cc1ccccc1 (stereo unspecified)
36: CC(C)NC(=O)N(C)C[C@@H]1OCCCC[C@H](C)Oc2ccc(NC(=O)NC3CCCCC3)cc2C(=O)N([C@H](C)CO)C[C@@H]1C
37: O=C(NCC[C@H]1CC[C@H](NC(=O)C2CCOCC2)[C@H](CO)O1)Nc1ccc(Cl)cc1
38: CCCc1cn(CC[C@@H]2CC[C@@H](NC(=O)Cc3cccnc3)[C@@H](CO)O2)nn1
39: O=C(C[C@H]1C[C@@H]2c3cc(NC(=O)CC4CC4)ccc3O[C@@H]2[C@@H](CO)O1)NCCN1CCCCC1
40: CCCC#Cc1ccc2c(c1)O[C@@H](CN(C)C(C)=O)[C@H](C)CN([C@@H](C)CO)S2(=O)=O

| assay / entry | 31 | 32 | 33 | 34 | 35 | 36 | 37 | 38 | 39 | 40 |
| --- | --- | --- | --- | --- | --- | --- | --- | --- | --- | --- |
| Yeast UUG start | -2 | -14 | 2 | -8 | 3 | 6 | -8 | -16 | -10 | -5 |
| Env fusion inh | -3[16.7 µM] | -8[16.7 µM] | -3[16.7 µM] | -6[16.7 µM] | -3[16.7 µM] | -37[16.7 µM] | -24[16.7 µM] | 4[16.7 µM] | 18[16.7 µM] | 17[16.7 µM] |

41: O=C(C[C@H]1C[C@H]2c3cc(NC(=O)Nc4ccccc4F)ccc3O[C@H]2[C@@H](CO)O1)NCc1ccncc1
42: CO[C@@H]1CN(C)C(=O)c2cc(NS(=O)(=O)c3ccccc3Cl)ccc2OC[C@H](C)NC[C@@H]1C
43: Cc1noc(C)c1S(=O)(=O)Nc1cccc2c1O[C@H](CN(C)S(=O)(=O)c1ccc(F)cc1)[C@H](C)CN([C@@H](C)CO)C2=O
44: C[C@H](CO)N1C[C@H](C)[C@@H](CN(C)Cc2ccccc2)Oc2ccc(NC(=O)CCN3CCOCC3)cc2CC1=O
45: C[C@@H]1CCCCO[C@H](CN(C)C(=O)Cc2ccccc2)[C@@H](C)CN([C@@H](C)CO)C(=O)c2cc(NS(=O)(=O)c3cn(C)cn3)ccc2O1
46: CN1C(=O)c2cc(NC(=O)c3cccs3)ccc2OC[C@@H]2O[C@H](CC(=O)NCC3CC3)CC[C@@H]21
47: C/C=C/c1ccc2c(c1)O[C@@H](CN(C)C(=O)Nc1ccc(C(F)(F)F)cc1)[C@H](C)CN([C@H](C)CO)S2(=O)=O
48: COc1ccc(CNC(=O)C[C@@H]2CC[C@@H]3[C@H](COc4ccc(NC(C)=O)cc4C(=O)N3C)O2)cc1
49: Cc1noc(C)c1S(=O)(=O)Nc1ccc2c(c1)C(=O)N([C@@H](C)CO)C[C@H](C)[C@H](CN(C)Cc1ccc(C(F)(F)F)cc1)O2
50: COc1ccccc1S(=O)(=O)N[C@H]1C=C[C@H](CC(=O)NCc2cc(F)cc(F)c2)O[C@@H]1CO

| assay / entry | 41 | 42 | 43 | 44 | 45 | 46 | 47 | 48 | 49 | 50 |
| --- | --- | --- | --- | --- | --- | --- | --- | --- | --- | --- |
| Yeast UUG start | -17 | -4 | -9 | 9 | 0 | 5 | -16 | -13 | 7 | 11 |
| Env fusion inh | 8[16.7 µM] | 5[16.7 µM] | 34[16.7 µM] | 26[16.7 µM] | -6[16.7 µM] | 15[16.7 µM] | 24[16.7 µM] | -2[16.7 µM] | -10[16.7 µM] | 3[16.7 µM] |

Complete entries from above:
Profile of O=C(C[C@H]1C[C@H]2c3cc(NC(=O)Nc4ccccc4F)ccc3O[C@H]2[C@@H](CO)O1)NCc1ccncc1 → Yeast UUG start: -17; Env fusion inh: 8[16.7 µM]
Profile of COc1ccccc1S(=O)(=O)N[C@H]1C=C[C@H](CC(=O)NCc2cc(F)cc(F)c2)O[C@@H]1CO → Yeast UUG start: 11; Env fusion inh: 3[16.7 µM]

Further entries:
51: COc1ccc(NC(=O)Nc2ccc3c(c2)C(=O)N([C@H](C)CO)C[C@@H](C)[C@@H](CN(C)C(=O)NC(C)C)OCCCC[C@H](C)O3)cc1
52: CC(C)NC(=O)Nc1ccc2c(c1)C(=O)N([C@@H](C)CO)C[C@@H](C)[C@H](CN(C)S(=O)(=O)c1cn(C)cn1)OCCCC[C@@H](C)O2
53: COCc1cn(CC[C@H]2CC[C@@H](NC(=O)Nc3ccc(F)cc3)[C@H](CO)O2)nn1
54: CCC(=O)Nc1ccc2c(c1)OC[C@H](C)N(Cc1ccncc1)C[C@H](C)[C@H](OC)CN(C)C2=O
55: C[C@@H]1CN([C@H](C)CO)C(=O)c2cc(NC(=O)NC3CCCCC3)ccc2O[C@@H](C)CCCCO[C@H]1CN(C)S(=O)(=O)c1ccccc1
56: O=C(C[C@H]1CC[C@@H](NC(=O)Nc2ccccc2)[C@@H](CO)O1)NCc1ccccn1
57: Cc1cc(C(=O)Nc2ccc3c(c2)C(=O)N(C)[C@@H]2CC[C@H](CC(=O)O)O[C@@H]2CO3)no1
58: C[C@H](CO)N1C[C@H](C)[C@H](CN(C)C(=O)NC2CCCCC2)OCCCC[C@H](C)Oc2ccc(NC(=O)CCC(F)(F)F)cc2C1=O
59: C[C@@H]1CCCCO[C@H](CN(C)S(=O)(=O)c2cccs2)[C@@H](C)CN([C@@H](C)CO)C(=O)c2cc(NS(=O)(=O)c3ccc(F)cc3)ccc2O1
60: O=C(C[C@@H]1C[C@@H]2c3cc(NC(=O)Cc4ccncc4)ccc3O[C@@H]2[C@H](CO)O1)NCc1cccnc1

| assay / entry | 51 | 52 | 53 | 54 | 55 | 56 | 57 | 58 | 59 | 60 |
| --- | --- | --- | --- | --- | --- | --- | --- | --- | --- | --- |
| Yeast UUG start | 4 | 7 | 1 | 9 | -1 | -9 | -2 | 0 | -6 | -7 |
| Env fusion inh | -16[16.7 µM] | 23[16.7 µM] | 0[16.7 µM] | -37[16.7 µM] | -22[16.7 µM] | 3[16.7 µM] | 39[16.7 µM] | -123[16.7 µM] | -51[16.7 µM] | -6[16.7 µM] |

61: COCC#Cc1cnc2c(c1)C(=O)N([C@@H](C)CO)C[C@@H](C)[C@@H](CN(C)Cc1ccc(F)cc1)O2
62: COc1ccc(S(=O)(=O)N(C)C[C@H]2Oc3ccc(NC(=O)Nc4ccc(F)cc4)cc3CC(=O)N([C@H](C)CO)C[C@H]2C)cc1
63: COc1ccc(S(=O)(=O)N(C)C[C@@H]2Oc3ccc(NC(=O)Cc4cn(C)c5ccccc45)cc3CC(=O)N([C@@H](C)CO)C[C@@H]2C)cc1
64: C[C@@H]1CCCCO[C@H](CN(C)C(=O)Nc2ccc3c(c2)OCO3)[C@@H](C)CN([C@@H](C)CO)C(=O)c2cc(NS(=O)(=O)c3cn(C)cn3)ccc2O1
65: CO[C@H]1CN(C)C(=O)c2cc(NC(=O)c3nc4ccccc4s3)ccc2OC[C@H](C)N(Cc2ccncc2)C[C@H]1C

| assay / entry | 61 | 62 | 63 | 64 | 65 |
| --- | --- | --- | --- | --- | --- |
| Yeast UUG start | -8 | -15 | -1 | -4 | 1 |
| Env fusion inh | 0[16.7 µM] | 4[16.7 µM] | 16[16.7 µM] | -21[16.7 µM] | 26[16.7 µM] |

Not all compounds are listed; rates above refer to the full screens.
